KCNQ2 enhance: enhances the rat KCNQ2 potassium channel; O88943; CHO-K1 KCNQ2, FluxOR thallium flux fluorescence; hits give high values; B-score at 10 µM; 310,000 tested, 0.54% active;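 active means fluorescence ratio B-score at least 3 SD of library B-scores, with initial fluorescence B-score within 3 SD, cut at about 5.3 in these data; same plate scores as AID 2156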;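 further: B-score of peak minus minimum over baseline fluorescence ratio after K+ and Tl+ stimulus; positive B-score means potentiation of KCNQ2 with more thallium influx and brighter signal; only the inactives scoring about 0 or higher are listed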
Target sequence (O88943 whole entry, looked up): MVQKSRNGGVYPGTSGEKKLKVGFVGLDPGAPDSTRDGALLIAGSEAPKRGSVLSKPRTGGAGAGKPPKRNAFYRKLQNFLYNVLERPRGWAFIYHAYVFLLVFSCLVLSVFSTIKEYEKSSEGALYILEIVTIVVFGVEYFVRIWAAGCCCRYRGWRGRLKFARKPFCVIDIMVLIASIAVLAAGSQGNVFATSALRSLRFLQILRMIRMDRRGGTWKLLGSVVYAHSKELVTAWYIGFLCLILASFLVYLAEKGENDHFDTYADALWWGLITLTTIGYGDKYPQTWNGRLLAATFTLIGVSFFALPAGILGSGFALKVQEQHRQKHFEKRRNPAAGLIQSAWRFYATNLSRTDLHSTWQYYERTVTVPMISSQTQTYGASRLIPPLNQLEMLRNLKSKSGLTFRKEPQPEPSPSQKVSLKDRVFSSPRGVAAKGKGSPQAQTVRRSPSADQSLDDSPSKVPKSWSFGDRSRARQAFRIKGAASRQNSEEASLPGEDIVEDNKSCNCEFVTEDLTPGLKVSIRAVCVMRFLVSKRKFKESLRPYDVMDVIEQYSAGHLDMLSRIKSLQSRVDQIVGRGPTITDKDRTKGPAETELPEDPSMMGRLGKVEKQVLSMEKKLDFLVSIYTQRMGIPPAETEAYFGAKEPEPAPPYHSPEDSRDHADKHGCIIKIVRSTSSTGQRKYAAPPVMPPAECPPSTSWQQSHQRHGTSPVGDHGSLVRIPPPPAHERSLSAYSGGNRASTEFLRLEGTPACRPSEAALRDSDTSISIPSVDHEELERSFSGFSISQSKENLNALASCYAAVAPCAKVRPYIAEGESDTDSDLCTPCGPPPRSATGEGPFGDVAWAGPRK
KCNQ2 enhance baseline: recorded beside KCNQ2 enhance, whose call it bears; B-score; compound at 10 µM; measured here: initial fluorescence intensity artifact check;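 brightness before thallium and not channel activity; 0 = typical well and far values either way flag optical interference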
* marks the source's active call; other numbers are inactive results. Some of the compounds tested, so the mix of outcomes need not match the whole.

KCNQ2 enhance | KCNQ2 enhance baseline | SMILES
0.32 | -0.52 | CN(C)C(C)(C)C#CC(O)(c1ccccc1)c1ccccc1
0.19 | 1.18 | Clc1cc2nc[nH]c2cc1Cl
0.82 | -0.97 | N#Cc1ncc(C(F)(F)F)cc1Oc1cccnc1
0.8 | -0.73 | O=C(CN1c2cccc3cccc(c23)S1(=O)=O)Nc1ccccc1
0.67 | 0.41 | CN1CCN(c2ccc(NC(=O)c3ccc4c(c3)[nH]c(=O)n4Cc3ccc(F)cc3)cc2)CC1
0.17 | 0.6 | CC(=O)OC[C@H]1O[C@H](C/C=N/O[C@@H](C)c2cn([C@H](CO)Cc3ccccc3)nn2)C=C[C@@H]1OC(C)=O
0.25 | 0.3 | Cc1cc(C)n(-c2ccc3nnc(C)n3n2)n1
0.04 | 1.89 | Cc1ccccc1NC(=O)Cn1c(CCC(=O)O)ccc1-c1cccs1
1.16 | -1.3 | CCCn1c(SC2C(=O)CC(C)(C)CC2=O)nc2c1c(=O)n(C)c(=O)n2C
0.29 | 1.6 | NC(=O)CC(NC(=O)Cc1ccc(Cl)cc1)c1ccc(N2CCN(c3ccccn3)CC2)c([N+](=O)[O-])c1 (stereo unspecified)
0.32 | 0.03 | C/C=C/c1ccc(OC(C)=O)c(OC)c1
2.03 | -1.47 | CCOc1cc(N2CCOCC2)c(OCC)cc1NC(=O)COC(=O)CCOc1cc(C)ccc1C
0.61 | 0.42 | COc1ccc2[nH]c(C)c(CCN3C(=O)C4C5C=CC(C5)C4C3=O)c2c1 (stereo unspecified)
1.05 | -0.87 | COc1ccc(F)cc1CN1CCN(C(=O)CCC(=O)Nc2nnc(C3CCCCC3)s2)CC1
0.68 | 1.92 | Cc1ccc(C)c(/C=C(\C(=O)O)c2ccc(S(=O)(=O)N3CCCCC3)s2)c1
1.06 | -1.06 | CN(C1CCCCC1)S(=O)(=O)c1ccc2[nH]c(=O)oc2c1
0.01 | -2.7 | COc1cccc(C(=O)CSc2nnnn2C)c1
0.62 | -1.61 | C/C(=N\NC(=O)c1nc2ccccn2c1C)c1ccc2c(c1)OCO2
1.37 | -0.49 | CCCc1cc(-c2n[nH]c(=S)n2-c2cccc(C)c2)cs1
0.39 | 0.9 | CCOc1ccc(CN(Cc2ccco2)S(=O)(=O)c2ccc(-n3cnnn3)c(OC)c2)cc1
1.9 | -0.63 | CCOc1ccc(C(=O)NC(=S)Nc2cc(C)ccn2)cc1[N+](=O)[O-]
0.18 | 1.72 | O=C1Nc2ccc(Cl)cc2C12Nc1ccccc1-c1nnc(SCc3ccccc3F)nc1O2 (stereo unspecified)
0.75 | 0.28 | CC(C)(C)OC(=O)NCCNC(=O)c1cccs1
0.93 | 0.17 | CCC(C)NC(=O)C1(C)CCC(=O)N1Cc1ccccc1OC (stereo unspecified)
0.8 | 0.15 | COc1cccc(N2CCN(C(=S)Nc3ccc(F)cc3)CC2)c1
1 | 0.16 | COc1cc(/C=N/NC(N)=O)c(Br)cc1OCC(=O)Nc1ccccc1C
0.9 | 1.12 | O=C(Nc1ccc(Oc2cccnc2)nc1)c1ccc(C(F)(F)F)cc1
0.24 | 1.11 | CCOC(=O)Cn1c(=NC(=O)c2sc3ccccc3c2Cl)sc2cc(S(N)(=O)=O)ccc21
0.14 | 0.58 | CC1CCCN(CCC(=O)Nc2ccc(F)c(F)c2)C1 (stereo unspecified)
0.63 | 0.26 | CCCNC(=O)NC(=O)COC(=O)/C=C/c1cc(Br)ccc1F
0.01 | 0.65 | COc1ccc(S(=O)(=O)NCc2ccc3c(c2)cc(C)n3C)cc1
0.4 | -0.84 | O=C(Nc1ccccc1)N1CCCC(c2nc(-c3cccs3)no2)C1 (stereo unspecified)
0.04 | -0.29 | Cc1cccc(N(CC(=O)NC(C)C)C(=O)CCC(=O)Nc2nccs2)c1
0.2 | 2.1 | O=S(=O)(NCc1cccs1)c1ccccc1Cl
2.06 | 1.82 | COc1ccc(C(=O)NC2CC2)cc1OC1CCN(Cc2ccc(F)cc2F)CC1
1.32 | 0.39 | Cc1ccc(NC(=O)c2ccc(OC(=O)c3cc4ccccc4o3)cc2)cc1
0.48 | -0.71 | Cc1cc(C)n(CC(=O)NC2CCCN(Cc3ccc(Cl)cc3)C2)n1 (stereo unspecified)
0.59 | 0 | O=C(CSc1nc(Nc2ccccc2)nc(N2CCOCC2)n1)NC1CCCCC1
0.45 | 0.42 | COc1ccc(CNS(=O)(=O)c2ccc(C)cc2)cc1
0.09 | 1.28 | COc1ccc(-n2cc(CNC3CCC(O)CC3)c(-c3cccc(F)c3)n2)cc1 (stereo unspecified)
0.04 | -1.01 | COc1cc(NCc2ccccc2O)c2ncccc2c1
0.93 | 2.49 | COc1cc(C(CCN2CCCCC2)c2c(OC)cc(OC)c3c(C)cc(=O)oc23)cc(OC)c1OC (stereo unspecified)
0.29 | -1.05 | CN(CC(=O)Nc1cccc(F)c1)C(=O)c1cc([N+](=O)[O-])ccc1N1CCOCC1
0.68 | -0.84 | C/C(=N\NC(=O)c1cccc(Br)c1)c1cccc(NC(=O)c2ccc(C)o2)c1
0.07 | -0.26 | CCOCCc1nnc(NC(=O)Cc2ccc(Br)cc2)s1
0.95 | 2.2 | NC(=O)C1=C[C@@H](c2coc3ccccc3c2=O)C[C@@H](OCCCCO)O1
0.01 | -0.93 | CNc1ncc(-c2nnnn2-c2ccccc2)c(-c2ccccc2)n1
0.76 | 1.76 | CCN(C(=O)COC(=O)CNC(=O)C12CC3CC(CC(C3)C1)C2)C1CCS(=O)(=O)C1 (stereo unspecified)
1.73 | -1.53 | NC(=O)c1ccccc1NC(=O)c1ccccc1F
0.03 | 0.73 | COCCn1c(CCc2ccccc2)n[nH]c1=S
1.1 | -0.68 | CN(C)C1C(=O)c2ccccc2C1=O
2.08 | -0.33 | Cc1cc(NC(=O)c2cccnc2)ccc1Br
0.05 | 0.29 | Cc1cc2nc(N3CCN(C(=O)c4ccco4)CC3)sc2cc1C
0.3 | 1.23 | CC1(C)CC(=O)N(CC(=O)O)c2ccccc2S1
0.21 | 2.47 | COc1ccccc1C(=O)NNC(=O)C(=O)N1CCCCC1
0.02 | 0.3 | CC1(C)Cc2c(oc3ncn4ncnc4c23)CO1
0.57 | -1.4 | CCN(CC)S(=O)(=O)c1cccc(C(=O)Nc2sc3c(c2C(N)=O)CCCC3)c1

27 of these compounds, reformatted.
Under each structure: KCNQ2 enhance | KCNQ2 enhance baseline
COc1ccc(S(=O)(=O)NCc2ccc3c(c2)cc(C)n3C)cc1
→ 0.01 | 0.65
O=C(Nc1ccccc1)N1CCCC(c2nc(-c3cccs3)no2)C1 (stereo unspecified)
→ 0.4 | -0.84
Cc1cccc(N(CC(=O)NC(C)C)C(=O)CCC(=O)Nc2nccs2)c1
→ 0.04 | -0.29
O=S(=O)(NCc1cccs1)c1ccccc1Cl
→ 0.2 | 2.1
COc1ccc(C(=O)NC2CC2)cc1OC1CCN(Cc2ccc(F)cc2F)CC1
→ 2.06 | 1.82
Cc1ccc(NC(=O)c2ccc(OC(=O)c3cc4ccccc4o3)cc2)cc1
→ 1.32 | 0.39
Cc1cc(C)n(CC(=O)NC2CCCN(Cc3ccc(Cl)cc3)C2)n1 (stereo unspecified)
→ 0.48 | -0.71
O=C(CSc1nc(Nc2ccccc2)nc(N2CCOCC2)n1)NC1CCCCC1
→ 0.59 | 0
COc1ccc(CNS(=O)(=O)c2ccc(C)cc2)cc1
→ 0.45 | 0.42
COc1ccc(-n2cc(CNC3CCC(O)CC3)c(-c3cccc(F)c3)n2)cc1 (stereo unspecified)
→ 0.09 | 1.28
COc1cc(NCc2ccccc2O)c2ncccc2c1
→ 0.04 | -1.01
COc1cc(C(CCN2CCCCC2)c2c(OC)cc(OC)c3c(C)cc(=O)oc23)cc(OC)c1OC (stereo unspecified)
→ 0.93 | 2.49
CN(CC(=O)Nc1cccc(F)c1)C(=O)c1cc([N+](=O)[O-])ccc1N1CCOCC1
→ 0.29 | -1.05
C/C(=N\NC(=O)c1cccc(Br)c1)c1cccc(NC(=O)c2ccc(C)o2)c1
→ 0.68 | -0.84
CCOCCc1nnc(NC(=O)Cc2ccc(Br)cc2)s1
→ 0.07 | -0.26
NC(=O)C1=C[C@@H](c2coc3ccccc3c2=O)C[C@@H](OCCCCO)O1
→ 0.95 | 2.2
CNc1ncc(-c2nnnn2-c2ccccc2)c(-c2ccccc2)n1
→ 0.01 | -0.93
CCN(C(=O)COC(=O)CNC(=O)C12CC3CC(CC(C3)C1)C2)C1CCS(=O)(=O)C1 (stereo unspecified)
→ 0.76 | 1.76
NC(=O)c1ccccc1NC(=O)c1ccccc1F
→ 1.73 | -1.53
COCCn1c(CCc2ccccc2)n[nH]c1=S
→ 0.03 | 0.73
CN(C)C1C(=O)c2ccccc2C1=O
→ 1.1 | -0.68
Cc1cc(NC(=O)c2cccnc2)ccc1Br
→ 2.08 | -0.33
Cc1cc2nc(N3CCN(C(=O)c4ccco4)CC3)sc2cc1C
→ 0.05 | 0.29
CC1(C)CC(=O)N(CC(=O)O)c2ccccc2S1
→ 0.3 | 1.23
COc1ccccc1C(=O)NNC(=O)C(=O)N1CCCCC1
→ 0.21 | 2.47
CC1(C)Cc2c(oc3ncn4ncnc4c23)CO1
→ 0.02 | 0.3
CCN(CC)S(=O)(=O)c1cccc(C(=O)Nc2sc3c(c2C(N)=O)CCCC3)c1
→ 0.57 | -1.4
